Screening data deposited in PubChem BioAssay by National Center for Advancing Translational Sciences (NCATS).
AmpC nodet inh – Promiscuous and Specific Inhibitors of AmpC Beta-Lactamase (assay without detergent); AmpC nitrocefin hydrolysis, absorbance 480 nm, no detergent; potencies from a single point are estimates; Potency, µM (doses to about 28.7 µM), without a hit: top-dose activity change, negative = inhibition; 71,000 compounds, 1.8% hits; AID 585, 2007; active = falling curve, for most hits resting on a single point; inconclusive = weak or doubtful change; inactive = flat or rising curve; further: % of control where 0% means no effect; about half of the hits show no inhibition at the top dose; a quarter of the inactives give rising signals
Target sequence (P00811 whole entry, looked up): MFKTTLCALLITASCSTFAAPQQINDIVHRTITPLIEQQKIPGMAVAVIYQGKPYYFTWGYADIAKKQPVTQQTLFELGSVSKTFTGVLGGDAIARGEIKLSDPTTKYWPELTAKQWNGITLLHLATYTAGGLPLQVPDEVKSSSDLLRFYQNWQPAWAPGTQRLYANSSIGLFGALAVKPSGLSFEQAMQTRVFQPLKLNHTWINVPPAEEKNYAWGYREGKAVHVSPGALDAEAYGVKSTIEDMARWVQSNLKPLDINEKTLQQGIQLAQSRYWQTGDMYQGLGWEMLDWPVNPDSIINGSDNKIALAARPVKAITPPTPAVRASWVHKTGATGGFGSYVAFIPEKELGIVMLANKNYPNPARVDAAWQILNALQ
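AmpC in 20 mM phosphate buffer pH 7.0 was preincubated 15 min at room temperature with compounds. Nitrocefin (800 uM stock) was then added and hydrolysis followed at 480 nm every 20 s for 4 min.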
Active calls of the source: *; ? = inconclusive; & = joins results of further samples; [ ] = dose if it differs, or a comment. Potency means the concentration at half of the fitted maximal effect. This is a subset. The share of hits here may be higher or lower than overall.

item	structure	AmpC nodet inh
1	Cc1ccc(-n2nc3c(c2NC(=O)c2ccc(Br)o2)CSC3)c(C)c1	-7%
2	CS(=O)(=O)OCCCCOS(C)(=O)=O	-7%&7%
3	CC(=O)N1CCCc2cc(S(=O)(=O)CCC(=O)N3CCN(c4cccc(C)c4)C(C)C3)ccc21 (centres undefined)	137%
4	Cc1ccc(SCC(=O)NCC(C)C)cc1	4%
5	Cc1[nH]ccc2c1[nH]c1cc(=O)ccc12	0%
6	COc1ccc(C(=O)Nc2cc(-c3nn4c(C)nnc4s3)ccc2C)cc1	72%
7	CC(=O)Nc1cccc(NC(=O)C2CCCN2C(=O)Nc2ccccc2C)c1 (centres undefined)	-3%
8	Cc1cc2cc(C(c3nnnn3CC3CCCO3)N3CCCc4ccccc43)c(=O)[nH]c2cc1C (centres undefined)	76%
9	CC(CO)(CO)N=Cc1cc(I)cc(I)c1O	6%[5.75 µM]
10	Clc1ccc(Cn2ncc3c(NCCN4CCOCC4)ncnc32)cc1	48%
11	O=C(CN1CCOc2ccccc21)N1CCCC1	1%
12	O=C(Nc1ccc2c(c1)OCO2)c1cnn2c(C(F)(F)F)cc(-c3ccco3)nc12	-8%
13	Cc1c(C2OC(=O)C3(CCCCC3)C(=O)C2(C)C)c(=O)n(-c2ccccc2)n1C (centres undefined)	51%
14	CCN(CC)C(=O)CSc1nc2cc3c(cc2c(=O)n1Cc1ccc2c(c1)OCO2)OCO3	65%
15	C=CCOC(=O)Nc1ccc(Cl)cc1NC(=O)OCC=C	-20%
16	C[C@]1(O)CC[C@H]2[C@H]3CC=C4N5CCN=C5CC[C@@]4(C)[C@H]3CC[C@@]21C	8%[5.75 µM]
17	O=C(Cc1ccc(-c2ccccc2)cc1)N1CCOCC1	25%
18	CCOc1cccc(C2C(C(=O)c3ccc(C)o3)=C(O)C(=O)N2c2nccs2)c1 (centres undefined)	-22%
19	COc1cc(Cl)c(S(=O)(=O)NCc2cccnc2)cc1Cl	9%
20	CC1CCCN(c2ccc(C(=O)NCCc3ccccc3)cn2)C1 (centres undefined)	10%
21	Nn1c(-c2cccs2)nc2sc3c(c2c1=O)CCCC3	6%
22	O=C(c1cn(-c2ccccc2)nc1-c1ccc(F)cc1)N1CCOCC1	73%
23	O=C(OCCN(CCOC(=O)c1ccncc1)S(=O)(=O)c1cccs1)c1ccncc1	47%
24	N=c1ccn2c(n1)O[C@H]1[C@@H](OP(=O)(O)O)[C@H](CO)O[C@H]12	6%[5.75 µM]
25	Cn1c2c(c(=O)n(C)c1=O)CN(CCN1CCNCC1)CN2	-4%
26	O=C(Nc1nc2c(s1)CCCC2)c1cc2n(n1)C(C(F)(F)F)CC(C1CC1)N2 (centres undefined)	14%
27	CC(=O)Nc1ccc2c(c1)C(=Nc1ccc(C(=O)O)cc1)c1ccccc1-2	-10%[5.75 µM]
28	Clc1cccc(-c2nc(-c3ccccn3)no2)c1	11%
29	O=C(CCc1ccc(S(=O)(=O)N2CCOCC2)cc1)Nc1cc(Cl)ccc1N1CCOCC1	119%
30	Nc1cc(OC(=O)c2ccccc2Br)nn1S(=O)(=O)c1ccccc1	?
31	Cc1nnc(N(Cc2ccco2)C(=O)c2ccno2)s1	-11%
32	Cc1ccccc1OCC1Cn2c(nc3c2c(=O)[nH]c(=O)n3C)O1 (centres undefined)	26%
33	COc1ccc(-n2ncc3c(N4CCc5ccccc54)ncnc32)cc1	11%
34	CC(C)[C@@H](CC(=O)N[C@@H]1CCNC[C@H]1C(=O)N[C@H](CC(=O)N[C@@H](CCC(=O)O)CC(=O)O)Cc1ccccc1)NC(=O)C[C@H](CO)NC(=O)[C@@H]1CCCC[C@H]1N	50%
35	Clc1ccc(-c2nnc3ccccn23)cc1	-4%
36	CCC(c1nnnn1C1CCCC1)N1CCN(C(=O)c2ccco2)CC1 (centres undefined)	6%
37	Cc1sc2ncnc(Sc3nnnn3-c3ccc(Cl)cc3)c2c1C	-9%
38	NC(=O)C1CCC(NC(=O)OCc2ccccc2)CC1 (centres undefined)	-9%
39	Cc1ccc(OCC(O)Cn2c(N3CCOCC3)nc3c2c(=O)[nH]c(=O)n3C)cc1 (centres undefined)	29%
40	O=C(OCC(=O)N1CCOCC1)C(c1ccccc1)c1ccccc1	58%
41	O=C(c1c(Cl)nc2sccn12)N(C(=O)c1c(Cl)nc2sccn12)c1ccc(Cl)cn1	44%
42	Cc1cccc(NC(=O)CCc2ccc(C)o2)c1	8%
43	Cn1nc(-c2ccc(N3CCCCC3)c(NC(=O)c3ccco3)c2)c2ccccc2c1=O	82%
44	CCCCNC(=O)CC1C(=O)N(Cc2ccccc2)C(C)c2nc3ccccc3n21 (centres undefined)	24%
45	CCOC(=O)c1sc(NC(=O)CSc2nc3c(cc2C#N)CCC3)c(C#N)c1C	-2%
46	COc1ccc(N=C2SC(CC(=O)Nc3ccc(OC)cc3OC)C(=O)N2C)cc1 (centres undefined)	83%
47	CSCCC(NS(=O)(=O)c1ccc2c(c1)oc(=O)n2C)C(=O)NC1CCC(C)CC1 (centres undefined)	3%
48	CCCN[C@@H]1CCc2c(OC)cccc2[C@@H]1C	7%
49	COC(=O)c1cc(OC)c(OC)cc1NC(=O)CN1CCOCC1	19%
50	Cc1ccc(NC(=O)COC(=O)c2ccn(C)n2)cc1	-4%

Five compounds already listed, sorted by formula weight, high to low.
item	structure	AmpC nodet inh
29	O=C(CCc1ccc(S(=O)(=O)N2CCOCC2)cc1)Nc1cc(Cl)ccc1N1CCOCC1	119%
43	Cn1nc(-c2ccc(N3CCCCC3)c(NC(=O)c3ccco3)c2)c2ccccc2c1=O	82%
36	CCC(c1nnnn1C1CCCC1)N1CCN(C(=O)c2ccco2)CC1 (centres undefined)	6%
31	Cc1nnc(N(Cc2ccco2)C(=O)c2ccno2)s1	-11%
42	Cc1cccc(NC(=O)CCc2ccc(C)o2)c1	8%

Additional entries follow.
item	structure	AmpC nodet inh
51	COC(=O)CSc1nnc(CNC(=O)c2cc(OC)c(OC)c(OC)c2)n1C	1%
52	CCC1(COC(=O)Nc2cccc(Cl)c2)COC1	-5%
53	COC(=O)COc1ccc(S(=O)(=O)Nc2ccc3c(c2)OCO3)cc1Cl	-17%
54	O=C(OCCn1cncn1)c1cc2ccccc2oc1=O	3%
55	CCCCn1c(SCC(=O)NCc2ccccc2)nc2ccc(N3CCOCC3)cc2c1=O	34%
56	Cc1ccccc1CS(=O)(=O)CCC(=O)NCc1ccccn1	5%
57	Clc1ccccc1-c1nn2c(-c3ccncc3)nnc2s1	13%
58	Cc1ccc(Cn2c(=N)c(C(=O)NCc3ccco3)cc3c(=O)n4ccccc4nc32)cc1	69%
59	CC(C)[C@@H](CC(=O)N[C@@H]1CCCC[C@H]1C(=O)N[C@H](CC(=O)N[C@@H](CCC(=O)O)CC(=O)O)Cc1ccccc1)NC(=O)C[C@H](CO)NC(=O)[C@@H]1CCCC[C@H]1N	81%
60	O=C(Nc1ccccc1)c1ccc(F)c(S(=O)(=O)N2CCOCC2)c1	-8%
61	COc1cc(-c2nnc(-c3ccco3)o2)ccc1OCc1ccccc1	82%
62	Cc1cc(C)c(NC(=O)CSc2nnc(-c3ccncc3)n2Cc2ccco2)c(Cl)c1	44%
63	CSCCC(/C(O)=C(\C#N)c1nc2ccccc2[nH]1)N1C(=O)c2ccccc2C1=O (centres undefined)	56%
64	O=c1ccnc(NCCc2ccccc2)[nH]1	10%
65	Cc1ccc(S(=O)(=O)Cn2nnnc2C(C(C)C)N2CCN(C(=O)c3ccco3)CC2)cc1 (centres undefined)	94%
66	COCCN(Cc1cc2cccc(C)c2[nH]c1=O)C(=O)c1ccccc1	23%
67	CC(=O)N1CCN(c2ccc(N=Cc3c(O)n(-c4ccc(Cl)cc4)c(=O)[nH]c3=O)cc2)CC1	74%
68	Cn1c(=O)c2nncnc2n(C)c1=O	-10%
69	Cc1cccn2c(=O)c(/C=N/O)c(N3CCCCC3)nc12	2%
70	Clc1ccc2nc(NC3=NCN(CCN4CCOCC4)CN3)nc(-c3ccccc3)c2c1	19%
71	N#Cc1nc(-c2cccs2)oc1N1CCN(c2ccccc2)CC1	0%
72	COc1ccc(NC(=O)CCN2CCC(C)CC2)cc1	-7%
73	CN(C)c1cc(N)c2c(n1)CCC2 (tested in a mixture with another compound)	0%
74	COc1cc(OC)cc(C(=O)NCCN2CCOCC2)c1	-5%
75	O=C(COc1ccc(Cl)cc1)Nc1ccc2oc(-c3ccncc3)nc2c1	26%

Remaining list, next part.
no.	Structure	AmpC nodet inh
76	O=C(O)[C@@H](Br)[C@H](Br)C(=O)O	-14%[5.75 µM]
77	O=S(=O)(NC1=NCCCCCC1)c1cccs1	6%
78	COC(=O)Cc1ccc(NC(=O)c2ccc(Br)o2)cc1	-1%
79	COc1cc2c(cc1OC)C(C)N(C(=O)Cn1ncc3c1-c1ccccc1OC3)CC2 (centres undefined)	123%
80	Cc1cc(C)nc(NC(=O)COc2ccc(Cl)cc2)c1	3%[5.75 µM]
81	O=C(CN1C(=O)CSC1=O)Nc1ccc2c(c1)OCCO2	-3%
82	COc1ccc(NC(=O)N2CC(C)OC(C)C2)cc1OC (centres undefined)	-3%
83	COc1ccc(-c2ccc(SCC(=O)Nc3cc(C)on3)nn2)cc1OC	12%
84	COCC1C2CC[C@H]3C(OCc4ccc(OC)cc4)OC[C@]4(C)[C@H]3C2=C(CN4C(=O)OC(C)(C)C)[C@H](C)C1COC (some centres undefined)	155%
85	COc1cc(N)c(Cl)cc1NC(=O)c1ccccc1	-1%
86	Cc1csc(NC(=O)CSc2nc3ccccc3c(=O)[nH]2)n1	?
87	O=C1c2ccccc2C(Nc2ccc(-c3nc4ccccc4[nH]3)cc2)N1Cc1ccco1 (centres undefined)	9%
88	COc1ccc(OC(C)C(=O)N2CCOCC2)cc1 (centres undefined)	-7%
89	CCCC(=O)Nc1ccccc1-c1nnn(CC(=O)Nc2ccc(OCC)cc2)n1	12%
90	Clc1ccccc1-c1ccc2ncnc(NCCN3CCOCC3)c2c1	132%
91	COc1cc2c(cc1OC)C(Cc1ccc(O)cc1)N(C)CC2 (centres undefined)	-16%
92	Cc1ccc2cc(CN(C(=O)c3ccncc3)C(C)C)c(=O)[nH]c2c1	-7%
93	C[N+]1(C)CCO[C@](O)(c2ccc(-c3ccc([C@]4(O)C[N+](C)(C)CCO4)cc3)cc2)C1	-8%[12.8 µM]
94	O=c1c2c(nc3cc(-c4ccc(F)cc4)[nH]n13)CCCC2	-10%
95	CCOC(=O)c1sc(NC(=O)CSc2n[nH]c(-c3ccccc3)n2)c(C#N)c1C	-22%
96	CCOC(=O)CC(=O)CSc1nc(-c2cccnc2)ccc1C#N	48%
97	Clc1ccc(-c2nn3c(-c4ccccc4)nnc3s2)cc1	10%
98	Cc1c(N=Cc2c(O)n(Cc3ccco3)c(=O)c3ccccc23)c(=O)n(-c2ccccc2)n1C	87%
99	CC(=O)Nc1ccc(C(=O)CSc2nnc(Cn3nnc4ccccc43)n2C)cc1	-3%
100	CC(C)(C)OC(=O)N1CCCC(C(=O)CC#N)C1 (centres undefined)	49%

By substructure: the entries above with fluorine
no.	Structure	AmpC nodet inh
12	O=C(Nc1ccc2c(c1)OCO2)c1cnn2c(C(F)(F)F)cc(-c3ccco3)nc12	-8%
22	O=C(c1cn(-c2ccccc2)nc1-c1ccc(F)cc1)N1CCOCC1	73%
26	O=C(Nc1nc2c(s1)CCCC2)c1cc2n(n1)C(C(F)(F)F)CC(C1CC1)N2 (centres undefined)	14%
60	O=C(Nc1ccccc1)c1ccc(F)c(S(=O)(=O)N2CCOCC2)c1	-8%
94	O=c1c2c(nc3cc(-c4ccc(F)cc4)[nH]n13)CCCC2	-10%

A second format for some results above:
#85 COc1cc(N)c(Cl)cc1NC(=O)c1ccccc1
  AmpC nodet inh = -1%
#83 COc1ccc(-c2ccc(SCC(=O)Nc3cc(C)on3)nn2)cc1OC
  AmpC nodet inh = 12%

(list continues)
no.	Structure	AmpC nodet inh
101	Cc1ccc(CNC(=O)CN2C(=O)COc3ccc(C)cc32)cc1	-8%
102	CCC(C)(C)n1nnnc1C(c1ccccn1)N1CCOCC1 (centres undefined)	11%
103	Cc1nn(C)c(C)c1S(=O)(=O)Nc1ccc2c(c1)OCO2	93%
104	COc1ccc(S(=O)(=O)Cc2ccc(C(=O)N3CCN(c4ccccn4)CC3)o2)cc1	4µM*[single pt active]
105	Cc1cc2c(=O)n(CC(=O)N3CCN(c4ccc(F)cc4)CC3)cnc2s1	0%
106	CCn1c(NC(=O)c2cccc(Cn3cc(Cl)cn3)c2)nc2ccccc21	4µM*[single pt active]
107	Cn1c(C(=O)N2CCCC(C(=O)NCCCSC3CCCCC3)C2)cc2sccc21 (centres undefined)	114%
108	CC1=C2C(=O)[C@@H]3[C@@H](CC=C4C[C@@H](O)CC[C@@]43C)[C@H]2CC[C@@]12O[C@H]1C[C@H](C)CN[C@H]1[C@@H]2C	14%[5.75 µM]
109	Cc1c(Cl)cccc1NC(=O)c1cc(C2CC2)on1	-2%
110	Cc1ccccc1-c1nc(CS(=O)(=O)CC(=O)Nc2cc(F)ccc2F)c(C)o1	-4%
111	Cn1c(NCc2cccs2)nc2ccccc21	-24%
112	COc1ccc(/C(O)=C2/C(=O)C(=O)N(Cc3cccnc3)C2c2ccncc2)cc1F (centres undefined)	8%
113	COC(=O)N(c1ccc(OC)cc1)P1(=S)OCCC(C)O1 (centres undefined)	21%
114	Cc1ccc(S(=O)(=O)NC2CCCC(C(=O)O)C2)cc1 (centres undefined)	7%

Reformatted with each value named: part of the list above
102. CCC(C)(C)n1nnnc1C(c1ccccn1)N1CCOCC1 (centres undefined)
  AmpC nodet inh: 11%

103. Cc1nn(C)c(C)c1S(=O)(=O)Nc1ccc2c(c1)OCO2
  AmpC nodet inh: 93%

104. COc1ccc(S(=O)(=O)Cc2ccc(C(=O)N3CCN(c4ccccn4)CC3)o2)cc1
  AmpC nodet inh: 4µM*[single pt active]
